ClpP mod – qHTS Assay for Activators of ClpP | purified B. subtilis ClpP, FRET peptide cleavage, 20 min | ATP-dependent Clp protease proteolytic subunit (Bacillus subtilis (strain 168)), P80244 | 1.9% of 340,000 active | Potency, µM (top dose mostly 57.5 µM), for the others: at the highest dose activity change, negative = active | AID 651965, 2013; active = well fitted falling curve with a large enough effect; inconclusive = small, poorly fitted or top-dose-only effect; inactive = no such curve, though single readings can be large or run the other way; also: potency is read from the fitted curve at half-maximal effect; the source files actives as falling curves though it sought activators and does not explain the sign; nearly all actives have a fitted effect of over 65% in size; many hits overshoot -100%
Target sequence (P80244 whole entry, looked up): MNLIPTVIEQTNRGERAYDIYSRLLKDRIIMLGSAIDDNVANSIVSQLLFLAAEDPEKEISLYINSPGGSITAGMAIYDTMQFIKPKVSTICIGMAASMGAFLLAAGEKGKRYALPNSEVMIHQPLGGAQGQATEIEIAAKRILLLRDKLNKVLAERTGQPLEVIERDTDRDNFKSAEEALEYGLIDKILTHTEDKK
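FRET quenching reversal measured ClpP activation: 10 microg/mL B. subtilis ClpP at pH 8 with the FRET-FV decapeptide, read at 430 nm after 320 nm excitation. The 20-min minus 0-min signal was scaled between DMSO/no-enzyme wells and ADEP (5.8 microM final).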
Sfp PPTase inh – inhibitors of Bacillus subtilis Sfp phosphopantetheinyl transferase; Q9F4F7; Biochemical Sfp PPTase activity, qHTS; Potency, µM, for inactives: max response, negative = inhibition, actives largely listed as inhibitors; 3.5% of 310,000 active; active = well fitted inhibition curve with a large enough effect; inconclusive = small, poorly fitted or top-dose-only effect, or another doubt; inactive = no such curve, though single readings can be large or run the other way;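 also: the enzyme is Sfp with the accession as filed and its product quenches rhodamine fluorescence; potency is read from the fitted curve at half-maximal effect; 0% = enzyme reaction without inhibitor and -100% = no enzyme wells; top concentration of the series not given in the record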
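With Hepes-Na pH 7.6 buffer containing 10 mM MgCl2, Sfp (15 nM) modified BHQ-2-YbbR (12.5 uM) using rhodamine-CoA (5 uM). Two reads 30 minutes apart at 525/598 nm yielded each well's rate.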
PINK1 expr mod – PINK1 expression modulation; PINK1 immunofluorescence, high-content cytometry, 24 h; Potency, µM (series often up to 76.6 µM), for inactives: top-dose activation (PINK1 increase), hits mostly activators; 0.2% of 410,000 active; AID 624263; active = well fitted activation curve with a large enough effect; inconclusive = small, poorly fitted or top-dose-only effect; inactive = flat fitted curve, though single readings scatter; cell line not stated here;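 also: potency is read from the fitted curve at half-maximal effect; % of control where 0% means no effect; nearly all actives have a fitted effect of over 65% in size; a mitochondrial uncoupler was the plate control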
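Measures PINK1 amount and localization on or inside mitochondria by immunofluorescence. Stable cells get compounds at 5 concentrations for 24 hours before fixation and staining; CCCP controls included.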
D2 ag – human D2 receptor agonism in beta-arrestin assay; P14416; DiscoveRx PathHunter D2 beta-arrestin, luminescence, 90 min; 100% = 57 uM dopamine signal; activation, % (test concentration not listed); 0.084% of 360,000 active; in the data active = activation above about 40%; inconclusive = about 15% to 40%; inactive = below about 15%; also: compound concentration not given in the record; the text of the record calls up to 30% inactive
Target sequence (P14416 whole entry, looked up): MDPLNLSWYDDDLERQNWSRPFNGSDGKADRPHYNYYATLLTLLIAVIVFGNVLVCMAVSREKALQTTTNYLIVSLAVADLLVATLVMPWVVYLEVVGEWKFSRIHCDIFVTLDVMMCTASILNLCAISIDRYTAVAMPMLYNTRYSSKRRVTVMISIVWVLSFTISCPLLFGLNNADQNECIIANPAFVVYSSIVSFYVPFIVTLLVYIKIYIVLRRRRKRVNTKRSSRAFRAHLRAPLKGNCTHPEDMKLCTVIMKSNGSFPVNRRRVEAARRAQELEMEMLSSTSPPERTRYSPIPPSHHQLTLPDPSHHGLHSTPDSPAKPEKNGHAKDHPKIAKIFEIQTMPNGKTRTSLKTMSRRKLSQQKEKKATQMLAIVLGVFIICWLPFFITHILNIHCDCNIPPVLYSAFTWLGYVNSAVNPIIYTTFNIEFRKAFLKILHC
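Agonist mode: compounds alone added to overnight-plated D2 PathHunter cells for 90 min at 37 C, with 57 uM final dopamine (EC100) defining full response. Beta-arrestin recruitment detected by chemiluminescent reagent, read after 1 h at ambient temperature.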
gsp antag – gsp mutant antagonism | gsp-mutant cells, cAMP HTRF, 30 min; control for the full effect not named in the record | Potency, µM (top dose mostly 76.9 µM), inactives show at the highest dose activity change, negative = inhibition, hits mostly inhibitors | 0.4% of 340,000 active; active = falling curve of any shape with a large fitted effect; inconclusive = falling curve, mostly with a smaller effect; inactive = flat or rising curve; cell line not stated here;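 also: intracellular cAMP measured with PDE inhibitor Ro 20-1724 present during compound exposure; potency is read from the fitted curve at half-maximal effect; % is scaled to controls: 0 for no effect and ±100 for the full control effect; nearly all actives have a fitted effect of over 65% in size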
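G418-selected cells were plated in DMEM/10% FBS for 16-24 h at 37C, then treated with compounds plus the PDE inhibitor […] (300 uM solution added) for 30 min at 37C. Intracellular cAMP was measured by HTRF after 30 min lysis at room temperature.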
gsp ag – agonists of gsp mutant (McCune-Albright syndrome) | gsp mutant cells, cAMP HTRF, 30 min; control for the full effect not named in the record | Potency, µM (series often up to 76.9 µM), without a hit: top-dose activation (cAMP increase), actives largely listed as activators | 0.13% of 340,000 active | AID 624287; active = well fitted activation curve with a large enough effect; inconclusive = small, poorly fitted or top-dose-only effect, or another doubt; inactive = no such curve, though single readings can be large or run the other way; cell line not stated here;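 also: phosphodiesterase inhibitor Ro 20-1724 added with compounds to block cAMP breakdown; potency is read from the fitted curve at half-maximal effect; nearly all actives have a fitted effect of over 60% in size; about a fifth of the inactives were tested at one dose only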
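Cells stably selected in G418 were plated at 2000/well, grown 16-24 hr, then given compounds in DMSO with the PDE inhibitor […] (300 uM solution added) for 30 min at 37C; cAMP was read by HTRF.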
Menin-MLL FL inh – displaces fluorescein MLL peptide from human menin; FP activity change, % at 61.4 µM; Fluorescence polarization, fluorescein-MLL peptide displacement from menin; 290,000 tested, under 10 active; AID 1766; inconclusive = falling polarisation curve, or a change in total fluorescence; inactive = total fluorescence flat and polarisation flat or rising; no compound was filed as active; the % refers to the polarisation; negative = inhibition;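 also: % of control where 0% means no effect; inhibitors lower the polarisation; unlabelled MLL peptide was the positive control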
The depositor's hits bear a star; ? = inconclusive; · = no result given; & = joins results of further samples; [ ] = another dose, or the depositor's remark. Compounds as they come. About 5.1% of those tested had a hit in this group.

mol | Menin-MLL FL inh | gsp ag | PINK1 expr mod | D2 ag | Sfp PPTase inh | ClpP mod | gsp antag
Cc1ccc(NC(=O)CN(C)C(=O)Cc2c(Cl)cccc2Cl)cc1 | 9.8 | -48%[inhibitor] | -1.8% | 4.9 | 7% | · | -4%
O=C(CNC(=O)Cc1ccccc1)NCC(=O)OCC(=O)c1ccc(Cl)cc1 | 3.0 | ? | -0.4% | -1.0 | 0% | -1.8% | 0%
O=C(NC1CCCCCC1)C1CCCN(S(=O)(=O)c2cccs2)C1 (configuration not stated) | 0.0 | 7% | 13% | -2.7 | 9% | -16% | 3%
Cc1ccc2nsnc2c1NC(=O)Cc1ccc(Cl)cc1 | 1.2 | 2% | 9.4% | -1.6 | 8% | · | 6%
Cc1ccc2c(cnn2C(=O)CCCC(=O)NCc2cccc(F)c2)c1 | 1.1 | -15% | -0.6% | -5.9 | 18% | 1.4% | -7%
Cc1ccc(S(=O)(=O)NCc2ccccc2)cc1C(=O)N(C)Cc1ccccc1F | · | -12% | 0.0% | -2.2 | -1% | 16µM* | -8%
Cc1ccccc1Nc1nnc(C)c(=O)n1N | -1.4 | 4% | · | -1.4 | -11% | -16% | 7%
O=S1(=O)N=C(N(CCO)/N=C/c2ccc(Cl)cc2)c2ccccc21 | -2.6 | 18% | 0.7% | 3.0 | 11% | 0.0% | -14%
C/C=C(\C)CN1CCCC(CO)(Cc2ccccc2)C1 (configuration not stated) | -1.2 | 2% | 1.9% | -3.0 | 13% | · | 6%
CC1CCC2=NN(C(=O)c3ccco3)C(O)(C(F)(F)F)C2C1 (configuration not stated) | -2.5 | 2%[15.4 µM] | 2.5% | -3.4 | -23% | · | 5%
O=C(c1ccc(S(=O)(=O)c2cccc(Cl)c2)c([N+](=O)[O-])c1)N1CCN(Cc2ccccc2)CC1 | 0.0 | -2%[15.4 µM] | -3.7% | -3.7 | -1% | 0.7% | -26%
O=C(NCCN=C1NS(=O)(=O)c2ccccc21)c1ccccc1 | 0.4 | 14% | -1.5% | -0.2 | 18% | · | -10%
CNc1snc(C)c1C(=O)OCC(=O)N(C)Cc1ccccc1 | · | -29% | -0.1% | ? | · | 1.0% | -6%
Cc1nc(C)n(CC(C)C(=O)N2CCN(S(=O)(=O)c3ccccc3)CC2)n1 (configuration not stated) | 4.3 | -6% | 1.5% | -2.4 | 19% | · | 11%
CCc1ccc(-c2cn(C3CCCCC3)c(=S)[nH]2)cc1 | -4.7 | 36%[15.4 µM] | 1.5% | 4.7 | 11% | · | ?
CCNC(=O)C1CCN(S(=O)(=O)c2ccc(F)cc2)CC1 | -3.5 | -29% | -1.1% | -1.9 | 14% | -0.6% | -13%
O=C(c1ccccc1S(=O)(=O)NCc1ccccc1)N1CCCCC1 | 2.0 | 6% | 0.7% | -3.0 | 11% | -3.4% | -2%
CC(C)CC1Nc2ncnc(N3CCN(c4ccccn4)CC3)c2N(Cc2ccccc2)C1=O (configuration not stated) | · | -14% | 5.8%&8.0% | 0.0&5.8 | · | -4.7%&-12% | -1%
CSCCC(NS(=O)(=O)c1ccc(Cl)cc1)C(=O)OCC(=O)N1CCOCC1 (configuration not stated) | -0.5 | -3% | -2.1% | -0.9 | -3% | -5.8% | -8%
Nc1c(C(=O)N/N=C/c2ccc(Cl)cc2)cnn1-c1ccccc1 | 5.6 | 5%[15.4 µM] | 14% | 5.6 | 23% | -1.9% | -4%
CCc1cccc2sc(N(CCCN3CCOCC3)C(=O)CS(=O)(=O)c3ccccc3)nc12 | · | -5% | 0.3% | -1.7 | · | -6.8% | -25%
CCc1ccccc1NC(=O)CCOc1ccccc1 | 1.6 | -30% | -0.1%&-1.4% | -3.3 | 14% | 2.4%&-3.0% | 5%
COc1ccc(-c2nnc3sc(-c4ccco4)nn23)cc1OC | 6.9 | 0% | 11% | -1.0 | -18% | 4.8% | 2%
COc1ccccc1OCC(=O)N1CCN(S(=O)(=O)c2ccc(Cl)cc2)CC1 | · | -42%[inhibitor] | 1.7% | -3.1 | · | 0.3% | 5%
COc1cc(CNCCCO)ccc1OCC(=O)NC(C)(C)C | 0.0 | -3%[15.4 µM] | -0.2% | -4.2 | 7% | · | 12%
CCC(NC(=O)Cc1c(C)c2ccc(OC)c(C)c2oc1=O)C(=O)NC(Cc1ccc(Cl)cc1)C(=O)O (configuration not stated) | -11 | · | 1.5% | 0.6 | 5% | 4.7% | -8%
COc1ccc(CCNC(=O)COC(=O)COc2ccc(C#N)cc2)cc1 | -3.3 | 4% | 0.9% | -2.4 | 13% | · | -19%
CCN(CC)CCCN(C(C)=O)c1nc(-c2cc(OC)ccc2OC)cs1 | 2.1 | 23% | -3.1% | -1.2 | -18% | 0.5% | 14%
O=C(c1csc2ccccc12)N1CCN(c2ccc(Cl)c(Cl)c2)CC1 | 1.4 | -9% | -2.7% | -1.2 | 17% | -1.6% | ?
O=C(Cc1cccs1)Nc1nnc(SCC(=O)N2CCCCC2)s1 | 3.2 | 14% | 0.5% | 0.7 | 18% | -18% | -11%

Random excerpt: 2 compounds from above
mol | Menin-MLL FL inh | gsp ag | PINK1 expr mod | D2 ag | Sfp PPTase inh | ClpP mod | gsp antag
COc1ccc(-c2nnc3sc(-c4ccco4)nn23)cc1OC | 6.9 | 0% | 11% | -1.0 | -18% | 4.8% | 2%
O=C(c1ccc(S(=O)(=O)c2cccc(Cl)c2)c([N+](=O)[O-])c1)N1CCN(Cc2ccccc2)CC1 | 0.0 | -2%[15.4 µM] | -3.7% | -3.7 | -1% | 0.7% | -26%

Part of the list above, with two lines to a compound:
Each structure is followed by: Menin-MLL FL inh, gsp ag, PINK1 expr mod, D2 ag, Sfp PPTase inh, ClpP mod, gsp antag
CC(C)CC1Nc2ncnc(N3CCN(c4ccccn4)CC3)c2N(Cc2ccccc2)C1=O (configuration not stated)
→ ·, -14%, 5.8%&8.0%, 0.0&5.8, ·, -4.7%&-12%, -1%
CSCCC(NS(=O)(=O)c1ccc(Cl)cc1)C(=O)OCC(=O)N1CCOCC1 (configuration not stated)
→ -0.5, -3%, -2.1%, -0.9, -3%, -5.8%, -8%
Nc1c(C(=O)N/N=C/c2ccc(Cl)cc2)cnn1-c1ccccc1
→ 5.6, 5%[15.4 µM], 14%, 5.6, 23%, -1.9%, -4%
CCc1cccc2sc(N(CCCN3CCOCC3)C(=O)CS(=O)(=O)c3ccccc3)nc12
→ ·, -5%, 0.3%, -1.7, ·, -6.8%, -25%
CCc1ccccc1NC(=O)CCOc1ccccc1
→ 1.6, -30%, -0.1%&-1.4%, -3.3, 14%, 2.4%&-3.0%, 5%
COc1ccc(-c2nnc3sc(-c4ccco4)nn23)cc1OC
→ 6.9, 0%, 11%, -1.0, -18%, 4.8%, 2%
COc1ccccc1OCC(=O)N1CCN(S(=O)(=O)c2ccc(Cl)cc2)CC1
→ ·, -42%[inhibitor], 1.7%, -3.1, ·, 0.3%, 5%
COc1cc(CNCCCO)ccc1OCC(=O)NC(C)(C)C
→ 0.0, -3%[15.4 µM], -0.2%, -4.2, 7%, ·, 12%
CCC(NC(=O)Cc1c(C)c2ccc(OC)c(C)c2oc1=O)C(=O)NC(Cc1ccc(Cl)cc1)C(=O)O (configuration not stated)
→ -11, ·, 1.5%, 0.6, 5%, 4.7%, -8%
COc1ccc(CCNC(=O)COC(=O)COc2ccc(C#N)cc2)cc1
→ -3.3, 4%, 0.9%, -2.4, 13%, ·, -19%
CCN(CC)CCCN(C(C)=O)c1nc(-c2cc(OC)ccc2OC)cs1
→ 2.1, 23%, -3.1%, -1.2, -18%, 0.5%, 14%
O=C(c1csc2ccccc12)N1CCN(c2ccc(Cl)c(Cl)c2)CC1
→ 1.4, -9%, -2.7%, -1.2, 17%, -1.6%, ?
O=C(Cc1cccs1)Nc1nnc(SCC(=O)N2CCCCC2)s1
→ 3.2, 14%, 0.5%, 0.7, 18%, -18%, -11%

Other results follow.
mol | Menin-MLL FL inh | gsp ag | PINK1 expr mod | D2 ag | Sfp PPTase inh | ClpP mod | gsp antag
CCOC(=O)c1c(-c2ccccc2)oc2ccc(O)c(CN3CCN(C)CC3)c12 | 2.2 | 4%[15.4 µM] | -3.0% | 0.3 | 6% | 0.1% | 9%
Cc1ccc(Cl)cc1N1CCN(S(=O)(=O)c2c(C)nc3scc(C)n3c2=O)CC1 | 3.4 | 11% | -0.6% | 3.0 | 1% | · | ?
O=C(NCCOCc1ccccc1)C(c1ccccc1)c1ccccc1 | -4.5 | -31%[15.4 µM] | -0.5% | -0.7 | 6% | -0.5% | 0%
O=C(NNC(=O)c1cc(-c2ccncc2)nc2ccccc12)c1ccccc1F | · | -65%[inhibitor] | 0.4% | -5.9 | · | -0.8% | -8%
Cc1cccc(N2C(=O)N3[C@@H]4c5ccccc5OC[C@@H]4[C@@H](c4ccccc4)[C@]3(C)C2=O)c1 | 6.9 | · | 2.0% | 5.5 | 15% | -0.5% | -2%
